Screening results deposited in PubChem by National Center for Advancing Translational Sciences (NCATS).
VDR inh: blocks the human vitamin D receptor; AID 504847; hit rate 0.93% among 400,000; VDR-SRC2-3 peptide fluorescence polarization, 2 h; Potency, µM, for inactives: max response, negative = inhibition, actives largely listed as inhibitors; active = well fitted inhibition curve with a large enough effect; inconclusive = small, poorly fitted or top-dose-only effect, or another doubt; inactive = no such curve, though single readings can be large or run the other way; note: series mostly up to about 120 µM
Target sequence (P11473 whole entry, looked up): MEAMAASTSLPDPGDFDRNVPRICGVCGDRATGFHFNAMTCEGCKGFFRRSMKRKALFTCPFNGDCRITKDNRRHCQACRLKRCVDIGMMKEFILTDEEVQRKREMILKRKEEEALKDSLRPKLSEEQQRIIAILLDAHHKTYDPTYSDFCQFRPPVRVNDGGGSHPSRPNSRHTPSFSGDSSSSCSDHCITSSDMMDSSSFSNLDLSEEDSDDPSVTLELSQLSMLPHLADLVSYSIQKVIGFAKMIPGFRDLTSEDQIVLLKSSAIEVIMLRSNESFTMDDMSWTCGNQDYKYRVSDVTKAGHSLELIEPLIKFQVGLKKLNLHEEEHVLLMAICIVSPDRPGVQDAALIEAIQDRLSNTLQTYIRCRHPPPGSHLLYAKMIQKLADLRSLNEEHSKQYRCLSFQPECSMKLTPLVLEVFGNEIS
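Inhibition of the VDR/SRC2-3 peptide interaction is quantified by fluorescence polarization. Compounds (23 nl, pintool) incubate with the reagents for 2 hours at ambient room temperature.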
Active calls of the source: *; ? = inconclusive; & = joins results of further samples; [ ] = dose if it differs, or a comment. % is set by controls: 0 for no effect and ±100 for the full control effect; potency is the fitted concentration of half-maximal effect. The list is partial, so the mix of outcomes need not match the whole.

| # | VDR inh | SMILES |
| --- | --- | --- |
| 1 | -5% | O=C(NC1CCCC1)C(c1ccccc1)N(C(=O)c1ccno1)c1ccccc1 (stereo not drawn) |
| 2 | -4% | Cc1cc(=O)oc2c(C)c(OC(C)C(=O)NCC3CCC(C(=O)O)CC3)ccc12 (stereo not drawn) |
| 3 | 1% | O=C(N/N=C/c1c[nH]c2ccc(Br)cc12)c1ccn(Cc2ccc(Cl)cc2)n1 |
| 4 | -15% | O=C(COC(=O)Cc1ccccc1F)Nc1ccc(SC(F)F)cc1 |
| 5 | ? | O=c1c(Br)c(N2CCCC2)cnn1-c1ccccc1 |
| 6 | -4% | Clc1cccc(CN2CCC(Cc3ccccc3)CC2)c1 |
| 7 | 4% | O=C1C(NS(=O)(=O)c2cccs2)=C(N2CCN(c3cccc(Cl)c3)CC2)C(=O)c2ccccc21 |
| 8 | 17% | CCC12CN(S(=O)(=O)c3ccc(C)cc3)CC(CC)(CN(S(=O)(=O)c3ccc(C)cc3)C1)C2=O |
| 9 | 2% | COc1cc(N2Cc3ccccc3C2)ccc1C=O |
| 10 | -7% | COC(=O)c1ccccc1NC(=O)COC(=O)c1ccco1 |
| 11 | -3% | COc1cccc(-c2ccc3c(c2)S(=O)(=O)c2cccc(C(=O)O)c2C3=O)c1OC |
| 12 | -2% | Cc1ccc(/C=N/NC(=O)CSc2nc3nc(C)cc(C)n3n2)cc1 |
| 13 | 9% | N=c1c(C(=O)NC2CCCCC2)cc2c(=O)n3ccccc3nc2n1CCc1ccccc1 |
| 14 | 4% | COc1ccc(Cn2c(CCC(=O)Nc3ccc(OC)c(Cl)c3)nc3cccnc32)cc1 |
| 15 | -5% | COC(=O)c1ccc(OCC2c3cc(OC)c(OC)cc3CCN2C(=O)Cc2ccc(OC)c(OC)c2)cc1 (stereo not drawn) |
| 16 | -11% | COc1ccc(C2=Nc3cc(C)ccc3OC2)cc1 |
| 17 | -3% | CCN1C(=O)c2ccccc2Sc2ccc(NC(=O)Nc3ccccc3OC)cc21 |
| 18 | 0% | CC(=O)Nc1ccc(S(=O)(=O)N2CCN(C3CCCCCCC3)CC2)cc1 |
| 19 | -13% | Cc1ccc(C(=O)Nc2cc([N+](=O)[O-])ccc2F)s1 |
| 20 | 1% | Cc1ccc(N=C2C(=O)Nc3ccccc32)cc1 |
| 21 | -4% | CCC(=O)N1CCc2cc(S(=O)(=O)NCCC(=O)NC3CCCCCC3)ccc21 |
| 22 | -10% | COc1ccc(S(=O)(=O)N2CCOCC2)cc1NC(=O)Cc1ccc2c(c1)OCCO2 |
| 23 | 1% | O=C(COC(=O)c1ccccc1C(=O)c1ccccc1)NCCc1ccccc1 |
| 24 | -2% | O=C(Nc1ccccc1)C1CC2CCCC(C1)C2=O (stereo not drawn) |
| 25 | 3% | CC1Cc2nc(SCC(=O)NCCc3ccccc3)n(C)c(=O)c2S1 (stereo not drawn) |

Structural class: those above containing a Cl atom.
| # | VDR inh | SMILES |
| --- | --- | --- |
| 3 | 1% | O=C(N/N=C/c1c[nH]c2ccc(Br)cc12)c1ccn(Cc2ccc(Cl)cc2)n1 |
| 6 | -4% | Clc1cccc(CN2CCC(Cc3ccccc3)CC2)c1 |
| 7 | 4% | O=C1C(NS(=O)(=O)c2cccs2)=C(N2CCN(c3cccc(Cl)c3)CC2)C(=O)c2ccccc21 |
| 14 | 4% | COc1ccc(Cn2c(CCC(=O)Nc3ccc(OC)c(Cl)c3)nc3cccnc32)cc1 |

3 compounds already listed, sorted by molar mass, high to low:
| # | VDR inh | SMILES |
| --- | --- | --- |
| 25 | 3% | CC1Cc2nc(SCC(=O)NCCc3ccccc3)n(C)c(=O)c2S1 (stereo not drawn) |
| 5 | ? | O=c1c(Br)c(N2CCCC2)cnn1-c1ccccc1 |
| 24 | -2% | O=C(Nc1ccccc1)C1CC2CCCC(C1)C2=O (stereo not drawn) |

Going on with the list.
| # | VDR inh | SMILES |
| --- | --- | --- |
| 26 | 9% | CCCCc1ccc(/C=C(\C#N)C(N)=S)s1 |
| 27 | 6% | NNC(=O)c1n[nH]c(=O)c2ccccc12 |
| 28 | -1% | CN1CCN(CC(O)COc2ccc(Cl)cc2)CC1 (stereo not drawn) |
| 29 | 1% | O=C(c1ccccn1)N(Cc1cc2ccccc2[nH]c1=O)C1CCCCC1 |
| 30 | 5% | Cc1ccc(NC(=O)Cn2cc(S(=O)(=O)NC(C)C)c(S(=O)(=O)NC(C)C)c2)cc1Cl |
| 31 | -3% | Cc1cccc2c(N=Nc3ccc(S(=O)(=O)Nc4ccc(Cl)cc4)cc3[N+](=O)[O-])c(O)[nH]c12 |
| 32 | ? | O=CNc1ccc2c3c(cccc13)-c1ccccc1-2 |
| 33 | -7% | Cn1cc(C(=O)NCCc2ccccc2)c(=O)c2cc(S(=O)(=O)N3CCCCCC3)ccc21 |
| 34 | 18% | O=C(NCC1CCCO1)c1onc(CSc2ccccc2)c1C(=O)O (stereo not drawn) |
| 35 | 5µM* | CCCNC(=O)Cn1sc2nc(C)cc(C)c2c1=O |
| 36 | -4% | COc1ccccc1N1CCN(S(=O)(=O)c2cn(C)nc2C)CC1 |
| 37 | -12% | CC(C)(C)SCCNC(=O)CN(c1ccc(F)c(Cl)c1)S(C)(=O)=O |
| 38 | 4% | CN(C)c1cc[n+](CC(=O)N2CCCc3ccccc32)cc1 |
| 39 | 21% | COC(=O)c1cc(NC(C)=O)ccc1N1CCOCC1 |
| 40 | 4% | OC1COC(c2ccccc2)OC1C(O)C1OC(c2ccccc2)OCC1O (stereo not drawn) |
| 41 | -6% | N#C/C(=N\Nc1ccccc1)C(N)=S |
| 42 | 1% | CCOc1ccc(CCNC(=O)CCNC(=O)c2ccco2)cc1OCC |
| 43 | -10% | CC(=O)c1cc(-c2ccccc2)n(CC(=O)NC(C)(C)C)c1C |
| 44 | 21% | O=C(CCn1cccc1)Nc1cccc(F)c1 |
| 45 | 0% | Cc1nnc(SCC(=O)NCc2ccccc2)[nH]c1=O |
| 46 | -3% | O=C(NC1(Cc2ccccc2)CCN(Cc2ccc(-c3ccccc3)cc2)C1=O)c1ccccc1 (stereo not drawn) |
| 47 | -16% | CCn1cc(/C=C(\NC(=O)c2ccc(OC)cc2)C(=O)N2CCN(C)CC2)c2ccccc21 |
| 48 | 13% | CC1(C)CC(=O)CC(=Nc2ccc3[nH]c(=O)[nH]c3c2)C1 |
| 49 | 12% | O=C(Nc1ccccc1C(=O)N1CCOCC1)c1cc2ccccc2o1 |
| 50 | 13% | COc1cccc(NC(=O)CNC(=O)c2ccc(OC)c(OC)c2)c1 |

Looked up by structure from above:
| # | VDR inh | SMILES |
| --- | --- | --- |
| 42 | 1% | CCOc1ccc(CCNC(=O)CCNC(=O)c2ccco2)cc1OCC |
| 43 | -10% | CC(=O)c1cc(-c2ccccc2)n(CC(=O)NC(C)(C)C)c1C |

New compounds follow:
| # | VDR inh | SMILES |
| --- | --- | --- |
| 51 | -8% | COCCn1c(C)c(C)c2c(NCCc3ccccc3)ncnc21 |
| 52 | -12% | COc1ccc(C2=NS(=O)(=O)N(C)C(C(=O)N3CCOCC3)=C2)cc1OC |
| 53 | -22% | O=C(Nc1cc(Cl)ccc1N1CCOCC1)c1cc2ccccc2o1 |
| 54 | -1% | COc1c2ccc(C(=O)NCCCCc3ccccc3)cc2nn1C |
| 55 | -4% | COc1cc(/C=C2\SC(=S)N(N3CCOCC3)C2=O)ccc1O |
| 56 | 7% | O=C(Nc1cc(C(F)(F)F)ccc1N1CCOCC1)c1c(F)c(F)c(F)c(F)c1F |
| 57 | -10% | Cc1cc(=O)oc2c3c(cc(OCC(=O)NCc4ccccn4)c12)OC(C)(C)CC3 |
| 58 | 2% | CN(C)Cc1nc2c(c(=O)[nH]1)C(C)(C)Cc1ccccc1-2 |
| 59 | -3% | COc1ccc(S(=O)(=O)c2nnn(-c3ccccc3F)c2C)cc1 |
| 60 | -11% | CCc1cccc(NC(=O)Cn2c(=O)n(CC3CCC(C(=O)NCCc4ccccc4)CC3)c(=O)c3ccccc32)c1 (stereo not drawn) |
| 61 | 31%[activator] | CN(C)S(=O)(=O)c1ccc(Cl)c(NC(=O)C2CCN(S(=O)(=O)c3cccs3)CC2)c1 |
| 62 | -5% | COc1ccc(C(=O)Nc2ccc(NC(=O)c3ccccc3)cc2)cc1S(=O)(=O)N1CCOCC1 |
| 63 | ? | O=C(O)c1ccccc1N=Nc1ccc(O)cc1 |
| 64 | -11% | CCOC(=O)C1=NOC2C3CC(C12)C1C(=O)N(CCc2ccc(OC)c(OC)c2)C(=O)C31 (stereo not drawn) |
| 65 | -13% | CC(C)CC(=O)NC(=S)Nc1ccc(N2CCN(C(=O)c3cccs3)CC2)cc1 |
| 66 | -26% | O=C(Cn1cc(SCc2ccc(F)cc2)c2ccccc21)N1CCOCC1 |
| 67 | 5% | Cc1ccccc1CN1CCN(CC(=O)NCc2ccccc2Cl)C1=O |
| 68 | 12% | CN(Cc1ccccc1)S(=O)(=O)c1ccc(N2CCCC2=O)cc1 |
| 69 | 12% | CCOC(=O)c1[nH]c(C)c(CCC(=O)Nc2cc(C)ccc2OC)c1C |
| 70 | -3% | C=C1CCC2[C@](C)(CO)[C@H](O)CC[C@@]2(C)[C@@H]1C/C=C1\C(=O)OC[C@H]1O (stereo partly drawn) |
| 71 | -12% | O=C(c1sc2ccccc2c1Cl)N(Cc1ccccc1)C1CCS(=O)(=O)C1 (stereo not drawn) |
| 72 | 3% | O=C(Cn1c(C(F)(F)F)nc2ccccc21)c1ccc(Cl)cc1 |
| 73 | -11%&-8% | O=C1c2ccccc2NC(c2ccc(O)cc2)N1Cc1ccco1 (stereo not drawn) |
| 74 | -11% | CC(=O)NNc1ncnc2c1cnn2-c1ccc(C)c(C)c1 |
| 75 | -9% | O=C(CSc1nnc2scc(-c3ccc(Cl)cc3)n12)NCc1ccco1 |

Of the compounds above, two have bromine:
| # | VDR inh | SMILES |
| --- | --- | --- |
| 3 | 1% | O=C(N/N=C/c1c[nH]c2ccc(Br)cc12)c1ccn(Cc2ccc(Cl)cc2)n1 |
| 5 | ? | O=c1c(Br)c(N2CCCC2)cnn1-c1ccccc1 |

Additional entries:
| # | VDR inh | SMILES |
| --- | --- | --- |
| 76 | -23% | CCCCn1c(N)c(N(CC(C)C)C(=O)c2ccc(N(C)S(=O)(=O)c3ccc(C)cc3)cc2)c(=O)[nH]c1=O |
| 77 | 8%&-9% | CC(C)CC(=O)N1CC(=O)Nc2ccc(F)cc2C1c1ccccc1 (stereo not drawn) |
| 78 | 10% | CCOC(=O)C1CCN(c2cc(C)nc3ccc(OC)cc23)CC1 |
| 79 | ? | CCOC(=O)COc1cccc2c(=O)n(CC(=O)NCCc3ccccc3)ccc12 |
| 80 | -9% | CC(C)Cc1nnc(NS(=O)(=O)Cc2ccccc2)s1 |
| 81 | -15% | CCc1ccccc1NC(=O)CCC(=O)N1CCSc2ccccc21 |
| 82 | 6% | CCOCCCNc1ccc(N2C(=O)CCCC2=O)cc1[N+](=O)[O-] |
| 83 | 21% | COc1cc2c(C(=O)N3CCN(c4ccccc4F)CC3)cn(C)c(=O)c2cc1OC |
| 84 | -20% | COc1ccc(CNC(=O)CSc2ccc(Br)cc2)cc1OC |
| 85 | 3% | N#Cc1cccc(NC(=O)CNc2cccc(S(=O)(=O)N3CCCC3)c2)c1 |
| 86 | -1% | CC1=C(C(=O)Nc2ccccc2)C(c2ccc3c(c2)OCO3)C2=C(CCCC2=O)N1 (stereo not drawn) |
| 87 | -7% | O=C(NC1CCCCCC1)c1nc2ncccn2n1 |
| 88 | -22% | O=C(O)c1ccccc1C(=O)NC1=NN(c2ccccc2)CC1 |
| 89 | 1% | CCOC(=O)CN(C(=O)CSc1nnc(CNc2ccc(C)cc2C)o1)c1ccccc1 |
| 90 | 4% | CCC1CCCCN1CCCNC(=O)C1CCN(c2nnc(-n3cccc3)s2)CC1 (stereo not drawn) |
| 91 | -1% | CCN(CC)S(=O)(=O)c1ccc(C(=O)Oc2ccc3c(c2)OCO3)cc1 |
| 92 | -11% | Cc1nn(Cc2ccc(Cl)cc2)c2sc(C(=O)O)cc12 |
| 93 | 12% | CCOC(=O)c1ccc(NC(=O)CN2C(=O)CCC2=O)cc1 |
| 94 | -10% | CCNc1ncc2nc(-c3ccccc3)c(=O)n(C[C@H]3CCCO3)c2n1 |
| 95 | 7% | C/C(=N/NC(=O)Cc1c(C)[nH][nH]c1=O)c1ccc(O)cc1 |
| 96 | -5% | COc1ccc(N(Cc2cc3ccccc3[nH]c2=O)S(C)(=O)=O)cc1 |
| 97 | 10% | Cc1ccc(CCNC(=O)c2sc3ncccc3c2-n2cccc2)cc1 |
| 98 | -9% | CC1(C)Cc2c(C#N)c(SCCC#N)nc(N3CCOCC3)c2CO1 |
| 99 | 8% | CC(C)NC(=O)c1cc(-c2ccco2)on1 |
| 100 | -4% | CC(=O)Nc1ccc(-c2nnc(SCC(=O)NCc3ccco3)n2C)cc1 |
